ALR H2O2 inh – blocks human ALR sulfhydryl oxidase activity; P55789; purified ALR, DTT oxidation, H2O2 HRP-luminol luminescence; inhibition, % (concentration not given with the values); 290,000 tested, 3.8% active; AID 485317;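 active = mean and each replicate at 75% or more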;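 also: stock transfer was 7.5 nL into about 7.5 µL; 0% = neutral wells and 100% = wells with inactivated enzyme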
Target sequence (P55789 whole entry, looked up): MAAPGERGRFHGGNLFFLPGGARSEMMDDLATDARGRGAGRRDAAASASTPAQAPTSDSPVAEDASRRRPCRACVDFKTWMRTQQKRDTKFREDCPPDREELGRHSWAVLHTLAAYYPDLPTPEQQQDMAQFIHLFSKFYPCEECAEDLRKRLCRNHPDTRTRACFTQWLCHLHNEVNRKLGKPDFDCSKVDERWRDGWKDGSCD
MLL AF4-AF9 inh – blocks AF4 peptide binding to human AF9 | AID 651704 | P42568 | inhibition, % at 10 µM | 350,000 tested, 0.47% active | AlphaScreen, biotin-AF4 peptide binding to FLAG-AF9;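 active = every replicate reaching a set inhibition limit, whatever the replicate mean, cut at about 25% in these data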;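 also: 0% = plate neutral control median and 100% = total signal loss; the record names both 10 and 1 µM as test concentration; the first replicate is given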
Ecoli rRNA inh – inhibitors of bacterial rRNA selective over humanized ribosomes; E. coli WT GFP vs humanized-ribosome RFP mutants, fluorescence, 24 h; stronger effect = lower value; DMSO median 0, no signal -100; GFP signal change (wild-type ribosome), % (concentration not given with the values); 350,000 tested, 1.6% active;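 active = significant combined selectivity score with lowered wild-type GFP, culture density cut under 30%, mutant RFP and density less affected; inactive = any of these conditions unmet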; also: one replicate is shown; some compounds called inactive have numbers as strong as hits
Vif A3G – HIV-1 Vif–A3G interaction blockers – biochemical, TR-FRET, GST-Vif 1-94, biotin-A3G peptide, dose response retest, primary screen (AID 1117319). TR-FRET GST-Vif / biotin-A3G peptide binding; higher % means a stronger effect; test concentration not given here; strong numbers were not always called active. inhibition, %, or IC50 in µM where a hit was titrated. 260,000 tested, 0.57% active;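 active = above the screen mean plus three standard deviations and confirmed in dose response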;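 also: Vif residues 1-94 fused to GST binding biotinylated APOBEC3G peptide 110-148; 0% = full assay without inhibitor and 100% = GST in place of GST-Vif; retest series ran down from 100 µM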
FGF22 binding – binders of recombinant human FGF22 by thermal shift; Q9HCT0; SYPRO orange fluorescence; percent of sucrose octasulfate shift, DMSO zero; calls only at 9.99 µM; 340,000 tested, 1.5% active; AID 651658;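 active = melting point raised past a set limit in the mean and every replicate; three in four hits are not shown here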
Target sequence (Q9HCT0 whole entry, looked up): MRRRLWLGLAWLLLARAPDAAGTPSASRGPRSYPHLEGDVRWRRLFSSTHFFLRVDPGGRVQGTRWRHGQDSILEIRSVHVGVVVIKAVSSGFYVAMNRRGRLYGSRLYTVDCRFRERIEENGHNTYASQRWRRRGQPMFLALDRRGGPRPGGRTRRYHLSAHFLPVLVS
HNF4A DNA FP – change in binding of human HNF4 alpha to DNA. P41235. HNF4a-FITC DNA binding, fluorescence polarization, 1 h. activity change, % at 10 µM. 360,000 tested, 0.3% active. AID 1224865; in the data active = activity change above about 30%, passing the limit was not always enough;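 also: controls were the assay level and a saturating level of protein; the project sought stronger binding though the title names inhibitors; some compounds called inactive have numbers as strong as hits; positive values seem to mean higher polarization but the record does not say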
Target sequence (P41235 whole entry, looked up): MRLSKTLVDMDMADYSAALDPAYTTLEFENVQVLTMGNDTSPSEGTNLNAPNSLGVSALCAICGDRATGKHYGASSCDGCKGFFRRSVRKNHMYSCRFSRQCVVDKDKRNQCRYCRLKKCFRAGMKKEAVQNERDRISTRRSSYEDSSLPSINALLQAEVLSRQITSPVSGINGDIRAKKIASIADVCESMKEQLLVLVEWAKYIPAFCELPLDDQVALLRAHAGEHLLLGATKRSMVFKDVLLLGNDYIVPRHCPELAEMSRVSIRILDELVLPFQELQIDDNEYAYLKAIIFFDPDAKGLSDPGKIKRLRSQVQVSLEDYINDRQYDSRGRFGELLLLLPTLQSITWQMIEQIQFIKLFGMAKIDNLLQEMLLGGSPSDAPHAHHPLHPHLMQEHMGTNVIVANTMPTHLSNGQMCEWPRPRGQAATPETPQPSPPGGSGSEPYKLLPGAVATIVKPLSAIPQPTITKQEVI
E coli growth – E. coli growth inhibition; Escherichia coli growth, OD600, 23 h; stronger effect = lower value; OD600 absorbance (test concentration not listed); AID 1053175; 330,000 tested, 0.21% active;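 active = OD600 absorbance below the run mean of sample wells minus 3.6 SD, in any replicate, cut at about 0.56 in these data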;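 also: stock transfer was 300 nL into about 60 µL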
Ecoli rRNA inh OD600 – recorded beside Ecoli rRNA inh, whose call it bears; OD600 change, %; measured here: OD600 growth;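 optical density of the mix in the first replicate; 0 = DMSO median and -100 = no signal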
Ecoli rRNA inh RFP – recorded beside Ecoli rRNA inh, whose call it bears; RFP signal change, %; measured here: RFP humanized mutant strains;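 first replicate; 0 = DMSO median and -100 = no signal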
* hit, by the source's call; i = inactive; · = no result given; & = joins results of further samples.

SMILES | ALR H2O2 inh | MLL AF4-AF9 inh | Ecoli rRNA inh | Ecoli rRNA inh OD600 | Ecoli rRNA inh RFP | Vif A3G | FGF22 binding | HNF4A DNA FP | E coli growth
O=C(CSc1cn(CC(=O)N2CCCCCC2)c2ccccc12)NCC1CCCO1 (stereo not drawn) | 51.7 | -1.8 | -5.8 | -2.3 | -10.0 | 5.3% | i | -3.8 | 0.696
COc1ccc(CN2C(=O)NC3(CCCCCC3)C2=O)cc1F | -2.0 | · | · | · | · | -3.6% | · | -1.1 | 0.67
Cc1cccc(CNc2ccc(C(CC(N)=O)NC(=O)c3cccc(Br)c3)cc2[N+](=O)[O-])c1 (stereo not drawn) | -2.1 | 0.3 | 18.6 | 24.5 | -0.5 | · | i | 4.1 | 0.669
Cc1noc(C)c1S(=O)(=O)Nc1ccc2c(c1)C(=O)N([C@@H](C)CO)C[C@@H](C)[C@@H](CN(C)Cc1ccccc1)O2 | · | 5.3 | 1.4 | 3.2 | 0.8 | · | i | · | ·
CC=Cc1ccc2n(c1=O)C[C@H]1[C@H](CO)[C@@H](C(=O)N3CCOCC3)N(Cc3ccccc3OC)[C@@H]21 (mixture of isomers) | · | 1.6 | -0.3 | -0.6 | -2.3 | · | i | · | ·
N#CCC(CNc1ncc(C(F)(F)F)cc1Cl)OC(=O)c1ccc(Cl)cc1 (stereo not drawn) | -6.6 | · | · | · | · | -6.2% | · | 3.0 | 0.687
CCn1c(=NC(=O)c2ccc(N3C(=O)CCC3=O)cc2)sc2c(OC)ccc(OC)c21 | -4.5 | 0.3 | -3.9 | -0.3 | 5.0 | -16.7% | i | -15.4 | 0.74
Cc1cnc(NC(=O)CSc2c(Cl)cccc2Cl)s1 | -5.0 | · | · | · | · | -1.5% | · | 6.2 | 0.722
O=C(NCCCN1CCOCC1)C(c1ccccc1)c1ccccc1 | -5.2 | -5.0 | 7.8 | 5.0 | 0.9 | · | i | 0.6 | 0.674
CC(=O)c1ccc(-n2c(C)ccc2-c2ccccc2)cc1 | 0.2 | · | · | · | · | -1.6% | · | -0.7 | 0.64
O=c1[nH]c(Cc2ccc(Cl)cc2)nc2ccccc12 | -6.9 | -0.6 | -4.5 | -4.4 | 0.0 | -0.4% | i | 4.3 | 0.713
CC(C)CC#Cc1ccc2c(c1)O[C@@H](CN(C)C(=O)Nc1ccccc1)[C@@H](C)CN([C@@H](C)CO)S2(=O)=O | · | -4.5 | -3.0 | 1.6 | -2.7 | · | i | · | ·
C=CCNc1oc(COc2ccc(C)cc2)nc1C#N | -4.8 | 0.7 | 4.8 | -2.4 | -1.9 | 24.4% | i | -2.1 | 0.725
CCn1cc(C(=O)N2CCOCC2)c(=O)c2cc(S(=O)(=O)N(C)C)ccc21 | · | -3.0 | 10.7 | 15.2 | -2.4 | 6.9% | i | 1.9 | 0.729
COC(=O)c1c(NC(=O)CC2SCC(C(=O)OC)NC2=O)sc2c1CCCC2 (stereo not drawn) | 17.1 | · | · | · | · | 14.9% | · | 2.9 | 0.682
COc1ccccc1NS(=O)(=O)c1cc(NC(=O)c2cccs2)ccc1N1CCOCC1 | -2.8 | 1.7 | -15.4 | -20.6 | 0.0 | 4.5% | i | -0.6 | 0.699
C[C@@H]1CN([C@H](C)CO)C(=O)c2cc(-c3ccc(C(=O)N(C)C)cc3)cnc2O[C@H]1CN(C)C(=O)C1CC1 | · | -3.2 | 8.0 | 19.3 | -1.1 | · | i | · | ·
C[C@@H]1CN([C@H](C)CO)C(=O)Cc2cc(NS(=O)(=O)c3cccs3)ccc2O[C@@H]1CN(C)C(=O)Nc1ccccc1 | · | -7.4 | 1.6 | 8.1 | 1.1 | · | i | · | ·
COc1ccccc1/C=C/C(=O)NCC(=O)N/N=C/c1ccc(C)o1 | 1.4 | 1.1 | 6.0 | -2.5 | -2.4 | · | i | 2.5 | ·
O=C(Nc1ccc(N2CCOCC2)nc1)c1cccs1 | -46.0 | 2.0 | 5.4 | -6.8 | -2.9 | 1.6% | i | -1.1 | 0.651
Cc1ccc(SCCc2ccc(C)nc2)cc1 | -2.4 | · | · | · | · | · | · | -0.9 | 0.673
O=C(CCCC(=O)OCC(F)(F)C(F)F)Nc1ccccc1F | · | -3.7 | 7.9 | 16.0 | 3.7 | 0.9% | i | 0.5 | 0.68
CC1CCCC(C)N1/N=C/c1ccc(Cl)cc1 (stereo not drawn) | 6.1 | · | · | · | · | -13.1% | · | -1.8 | ·
Cc1ccc(-c2cn3c(=O)cc(C)[nH]c3n2)cc1 | -6.4 | · | · | · | · | -2.5% | · | -2.8 | 0.681
COc1cccc(C(=O)NCCCNc2nc3cc(C)cc(C)c3cc2C#N)c1 | · | -2.9 | 8.5 | 9.0 | 2.1 | -14.7% | i | -2.0 | ·

(more compounds)
SMILES | ALR H2O2 inh | MLL AF4-AF9 inh | Ecoli rRNA inh | Ecoli rRNA inh OD600 | Ecoli rRNA inh RFP | Vif A3G | FGF22 binding | HNF4A DNA FP | E coli growth
Cc1ccc(NC(=O)COc2ccc(/C(N)=N/O)cc2)cc1C | 98.9* | 1.0 | 8.7 | 3.4 | 2.5 | -2.0% | i | -2.9 | 0.669
OC[C@@H]1CN(Cc2cccc(C(F)(F)F)c2)C[C@H](n2cnc3c(NC4CC4)ncnc32)O1 | · | 0.4 | -2.7 | -1.4 | 6.9 | · | i | 2.5 | ·
NS(=O)(=O)c1ccc(CCNC(=O)Nc2ccc(Cl)cc2)cc1 | · | · | · | · | · | 15.5% | · | 1.5 | 0.65
O=C(CCc1ccccn1)N1CCCC(CNS(=O)(=O)c2cccs2)C1 (stereo not drawn) | 4.0 | -2.3 | 9.3 | 20.0 | 1.4 | -2.9% | i | 1.0 | 0.689
COc1ccccc1NC(=O)CS(=O)(=O)c1cn(CC(=O)N2CCOCC2)c2ccccc12 | -7.6 | 1.7 | 25.6 | 7.6 | -3.1 | -4.8% | i | -1.4 | 0.688
N#CC1(NC(=O)CSc2nnc3n2CCCCC3)CCCCC1 | 26.7 | -0.9 | 4.2 | 9.7 | -2.1 | · | i | 5.0 | 0.697
COC(=O)c1c(NC(=O)CN(c2ccccc2)S(C)(=O)=O)sc2c1CCCC2 | -33.9 | · | · | · | · | 2.4% | · | 1.6 | 0.7
NC(=O)C1CCCN(C(=O)c2cccc(S(=O)(=O)N(Cc3ccccc3)c3ccccc3)c2)C1 (stereo not drawn) | 4.1 | 2.5 | -8.0 | -11.7 | 3.1 | 1.4% | i | 1.4 | 0.683
CCOC(=O)c1ccc(N2C(=O)C(O)=C(C(C)=O)C2c2ccc(O)c(OC)c2)cc1 (stereo not drawn) | 20.7 | · | · | · | · | 4.0% | · | -2.0 | 0.692
Cc1cc(C(C)(C)C)cc(CN2CCN(S(=O)(=O)c3cccs3)CC2)c1O | · | 1.1 | 2.6 | -1.4 | -1.3 | · | i | -0.4 | ·
C/C(=N\NC(=O)c1ccn[nH]1)c1cn(C)nc1C | -6.7 | -1.3 | 18.8 | 18.9 | 2.0 | -7.0% | i | 2.7 | ·
COC(=O)C1=C(O)/C(=C\c2ccc(O)c(OC)c2)N=C1C | 98.9* | · | · | · | · | 19.8% | · | 3.0 | 0.707
C[C@H]1CN([C@@H](C)CO)S(=O)(=O)c2ccc(C#CCC3CCCC3)cc2O[C@H]1CN(C)C(=O)CC1CC1 | · | -1.9 | -3.3 | -10.5 | 7.1 | · | i | · | ·
COc1ccc(CNC(=O)C2(CC3CC(c4ccccc4)=NO3)CCN(C(=O)c3cccc(O)c3)CC2)cc1 (stereo not drawn) | -2.4 | 1.5 | 0.0 | 6.1 | -9.8 | · | i | -1.4 | 0.709
CCCCn1c(CN2CCOCC2)nc2c1c(=O)n(C)c(=O)n2C | 13.0 | -3.8 | 3.9 | 1.9 | 6.0 | · | i | 0.2 | 0.778
CCOC(=O)C1=C(COC(=O)COc2ccc(C#N)cc2)NC(=O)NC1C (stereo not drawn) | 2.6 | 0.9 | 1.3 | 6.0 | 0.6 | · | i | -1.2 | 0.681
COc1ccc(Cl)cc1NC(=O)CN(c1ccccc1)S(=O)(=O)N(C)C | -7.8 | · | · | · | · | -5.7% | · | -0.9 | 0.692
COc1ccc(N(CC(=O)Nc2cc(OC)c(OC)cc2C(=O)O)S(=O)(=O)c2c(C)noc2C)cc1 | 5.9 | 1.4 | 5.5 | 9.3 | 1.5 | 3.3% | i | -0.5 | 0.682
C/C=C/c1ccc2c(c1)O[C@@H](CN(C)C(=O)Nc1ccc(C(F)(F)F)cc1)[C@H](C)CN([C@@H](C)CO)S2(=O)=O | · | 1.2 | -0.8 | -7.1 | -4.1 | · | i | · | ·
C/C(=N\NS(=O)(=O)c1ccc([N+](=O)[O-])cc1)c1ccc2c(c1)OCO2 | 23.0 | -1.6 | 16.2 | 11.2 | -1.3 | · | i | 4.1 | ·
COc1ccc(C2/C=C\CC(NC(=O)OCC3c4ccccc4-c4ccccc43)CC(=O)N2Cc2ccccc2F)cc1 (stereo not drawn) | · | · | · | · | · | -3.0% | · | 5.1 | 0.738
Cc1cccc(NC(=S)NNC(=O)CCn2cc(C)cn2)c1 | 35.2 | 1.6 | 17.0 | 15.2 | 1.1 | 2.8% | i | 1.4 | 0.646
O=C(Nc1cccc(S(=O)(=O)NC2=NCCC2)c1)c1ccc(C(F)(F)F)cc1 | -1.8 | -2.6 | -0.2 | -0.2 | 2.2 | -4.5% | i | 1.3 | 0.704
Cc1ccc(N(CC(=O)NC(C)C)C(=O)CCC(=O)Nc2nccs2)c(C)c1 | -1.3 | -2.3 | 4.4 | 9.9 | 2.0 | -4.2% | i | -3.0 | 0.676
O=C(NCc1ccc(F)cc1)c1cc(S(=O)(=O)N2CCOCC2)ccc1F | 0.0 | · | · | · | · | 2.2%&13.6% | · | 0.4 | 0.665
COC(=O)c1c(C)n(-c2ccc(C)cc2)c2ccc(O)cc12 | · | · | · | · | · | 2.9% | · | 4.1 | 0.733
CC(C)c1ccc(/C=C(\c2nc3ccccc3[nH]2)S(=O)(=O)c2ccccc2)cc1 | 64.0 | · | · | · | · | 3.8% | · | 3.4 | 0.73
COCC#Cc1cnc2c(c1)C(=O)N([C@H](C)CO)C[C@@H](C)[C@@H](CN(C)C(=O)C1CCCCC1)O2 | · | -2.9 | 2.7 | 4.3 | 1.1 | · | i | · | ·
COc1cc(Cl)c(C)cc1NC(=O)c1ccc(S(C)(=O)=O)cc1 | · | 1.3 | -12.0 | -10.8 | 1.0 | · | i | 1.7 | 0.663
C[C@H](NC(=O)C[C@H]1C[C@H]2c3cc(NC(=O)CC4CC4)ccc3O[C@H]2[C@H](CO)O1)c1ccccc1 | · | -0.8 | -0.1 | 0.2 | -0.3 | · | i | · | ·

Compound profiles (already shown). Values in the order: ALR H2O2 inh, MLL AF4-AF9 inh, Ecoli rRNA inh, Ecoli rRNA inh OD600, Ecoli rRNA inh RFP, Vif A3G, FGF22 binding, HNF4A DNA FP, E coli growth
CC(=O)c1ccc(-n2c(C)ccc2-c2ccccc2)cc1 as listed: 0.2, ·, ·, ·, ·, -1.6%, ·, -0.7, 0.64
O=C(NCCCN1CCOCC1)C(c1ccccc1)c1ccccc1 as listed: -5.2, -5.0, 7.8, 5.0, 0.9, ·, i, 0.6, 0.674

Sorted by value in ALR H2O2 inh (rising): some entries from above
compound,ALR H2O2 inh
O=C(Nc1ccc(N2CCOCC2)nc1)c1cccs1,-46.0
Cc1cnc(NC(=O)CSc2c(Cl)cccc2Cl)s1,-5.0
O=C(NCc1ccc(F)cc1)c1cc(S(=O)(=O)N2CCOCC2)ccc1F,0.0
COc1ccccc1/C=C/C(=O)NCC(=O)N/N=C/c1ccc(C)o1,1.4
NC(=O)C1CCCN(C(=O)c2cccc(S(=O)(=O)N(Cc3ccccc3)c3ccccc3)c2)C1 (stereo not drawn),4.1

These rows are one share of the data; rates above refer to the full screens.
